KCNQ2 pot: potentiators of rat KCNQ2 potassium channel | O88943 | CHO-K1 KCNQ2, FluxOR thallium flux fluorescence; hits give high values | B-score at 10 µM | 0.54% of 310,000 active | AID 2239;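 active means fluorescence ratio B-score at least 3 SD of library B-scores, with initial fluorescence B-score within 3 SD, cut at about 5.3 in these data; same plate scores as AID 2156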;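 further: B-score of peak minus minimum over baseline fluorescence ratio after K+ and Tl+ stimulus; positive B-score means potentiation of KCNQ2 with more thallium influx and brighter signal; only the inactives scoring about 0 or higher are listed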
Target sequence (O88943 whole entry, looked up): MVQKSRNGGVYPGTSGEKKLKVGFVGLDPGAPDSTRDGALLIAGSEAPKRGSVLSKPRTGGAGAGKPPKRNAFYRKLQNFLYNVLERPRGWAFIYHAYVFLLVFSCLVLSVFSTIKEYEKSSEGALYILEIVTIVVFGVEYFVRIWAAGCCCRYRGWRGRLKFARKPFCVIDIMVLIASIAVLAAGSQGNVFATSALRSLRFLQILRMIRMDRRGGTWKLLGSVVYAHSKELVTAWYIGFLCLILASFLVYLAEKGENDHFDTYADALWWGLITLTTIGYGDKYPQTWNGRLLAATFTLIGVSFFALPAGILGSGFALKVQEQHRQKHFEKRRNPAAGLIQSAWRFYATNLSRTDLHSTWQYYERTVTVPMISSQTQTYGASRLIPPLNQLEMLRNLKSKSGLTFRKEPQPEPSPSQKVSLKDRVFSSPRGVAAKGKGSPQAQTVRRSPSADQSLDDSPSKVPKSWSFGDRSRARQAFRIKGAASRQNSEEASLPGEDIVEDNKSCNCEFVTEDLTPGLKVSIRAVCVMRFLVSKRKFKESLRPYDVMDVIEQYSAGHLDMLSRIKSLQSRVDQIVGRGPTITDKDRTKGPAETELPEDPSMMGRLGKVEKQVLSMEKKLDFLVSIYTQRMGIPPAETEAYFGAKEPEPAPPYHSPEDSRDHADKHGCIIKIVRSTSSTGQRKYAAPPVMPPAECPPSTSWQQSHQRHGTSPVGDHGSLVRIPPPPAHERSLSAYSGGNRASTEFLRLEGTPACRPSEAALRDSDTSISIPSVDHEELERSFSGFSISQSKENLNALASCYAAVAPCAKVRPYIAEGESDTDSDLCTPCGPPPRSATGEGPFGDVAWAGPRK
KCNQ2 pot baseline: recorded beside KCNQ2 pot, whose call it bears; B-score; compound at 10 µM; measured here: initial fluorescence intensity artifact check;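 brightness before thallium and not channel activity; 0 = typical well and far values either way flag optical interference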
Numbers without * were called inactive; & = joins results of further samples. Some of the compounds tested; count on the stated rates, not on these rows.

Each structure is followed by: KCNQ2 pot	KCNQ2 pot baseline
CC/C(=N\NC(=O)c1ccccc1)c1c(O)n(Cc2ccccc2)c(=O)[nH]c1=O
    0.91	0.26
CCn1ccnc1CN1CCCC(C(=O)c2cc(F)ccc2OC)C1 (stereo not given)
    0.69	-1.7
COc1cccc(Oc2c(C)oc3cc(OC(=O)N(C)C)ccc3c2=O)c1
    0.82	1.88
C=CCn1c(O)c(C(C)=Nc2ccc(N(C)C)cc2)c(=O)[nH]c1=O
    2.14	-1.12
CSc1ccc(C(=O)C2CCCN(Cc3cnc(SC)nc3)C2)cc1 (stereo not given)
    0.39	1.15
CCn1nc(-c2ccccc2)nc2c(=O)n(C)c(=O)nc1-2
    1.65	11.7
Fc1cccc(CCNCc2ccccn2)c1
    0.37	-1.02
CC(Oc1ccc(-c2ccccc2)cc1)C(=O)O (stereo not given)
    2.62	-0.14
COC(=O)C1=CO[C@@H](C)[C@H]2CN3CC[C@]4(C(=O)Nc5ccccc54)[C@@H]3C[C@H]12
    0.01	0.92
O=P(NS(=O)(=O)c1ccccc1)(Oc1ccccc1)Oc1ccccc1
    0.11	0.95
COc1ccc(C2c3c(nc(C)[nH]c3=O)Oc3c2c(=O)oc2ccccc32)cc1 (stereo not given)
    0.07	-1
Nc1c2c(nc3sc4c(c13)CCCC4)CCCCC2
    0.79	-1.38
COc1ccc(-c2nn(CCC#N)cc2C(=O)Nc2ccc(C(C)=O)cc2)cc1[N+](=O)[O-]
    0.89	0.14
CC(C)CC(NC(=O)CCCNC(=O)CCC(=O)OC1O[C@H]2OC3(C)CC[C@H]4[C@H](C)CCC(C1C)C24OO3)C(=O)O (stereo not given in full)
    0.02	-0.06
CN1CCN(c2ccc(N)c(N3CCN(C)CC3)c2)CC1
    0.44	2.88
CC(=O)N1CCN(c2ccc([N+](=O)[O-])cc2C=C2C(=O)NC(=O)NC2=O)CC1
    0.26	-0.65
CCCCOC(=O)c1ccc(NC(=O)c2c(O)[nH]c(=O)[nH]c2=O)cc1
    0.11	0.98
Cc1ccc(NC(=S)NCCc2cnc[nH]2)cc1C
    0.09	3.64
Cc1ccc2ccccc2c1NC(=O)CNC1CCCCC1
    0.63	-1.16
O=c1[nH]c(=S)n(-c2ccccc2)c(O)c1/C=N/N1CCCCC1c1cccnc1 (stereo not given)
    0.21	0.93
CCOC(=O)C(O)(c1ccc(NC(=O)NC2CCCCC2)cc1)C(F)(F)F (stereo not given)
    2.52	-2.11
COc1ccc(NC(=O)N2C[C@@H]3C[C@@H](C2)c2cccc(=O)n2C3)c(OC)c1
    2.41	-0.53
O=c1[nH]c(=O)n(Cc2ccco2)c(O)c1C=NCc1ccc2c(c1)OCO2
    0.6	0.28
OC12CCCCC1C(c1ccccc1)NCC2 (stereo not given)
    1.06	-1.35
CC/C(=N\Nc1ccccc1)c1c(O)n(-c2ccccc2)c(=O)[nH]c1=O
    0.03	0.01
O=C1NC(=O)N(Cc2ccco2)C(=O)/C1=C\c1cccn1CCOc1ccc(Cl)cc1
    0.17	-0.66
CSc1ncc(CN2CCCC(C(=O)c3cccc(Cl)c3)C2)cn1 (stereo not given)
    1	-0.33
Nc1ccc(Cl)cc1C(=O)c1ccccc1
    1.64	-0.75
C=C1C[C@]2(O)[C@@]3(C)CCC(=O)C(C)(C)C3=C(O)C(=O)[C@@]2(C)[C@@H]2C(=O)O[C@@](C)(C(=O)OC)C(=O)[C@@]12C
    0.97	0.12
OCCOCC#CCN1CCOCC1
    1.77	1.24
O=C1OC(c2ccc(Br)cc2)=N/C1=C\N1CC2CC(C1)c1cccc(=O)n1C2 (stereo not given)
    0.55	0
CCOC(=O)N(CC)c1ccc(C(O)(C(=O)OC)C(F)(F)F)cc1 (stereo not given)
    0.76	2.25
c1ccc(CCNCc2cccs2)cc1
    0.39	-0.01
COc1ccc(N=C(C)c2c(O)[nH]c(=O)[nH]c2=O)cc1
    0.31	-0.76
CC(NC(C)(C)C)C(=O)c1cccc(Cl)c1 (stereo not given)
    0.14&1.05	-0.7&-0.67
CCN(CC)P(=S)(c1c(C)nc2ccccn12)c1c(C)nc2ccccn12
    0.64	-0.66
CC(C)Oc1cccc(NC(=O)c2cccn(Cc3ccc4c(c3)OC(F)(F)O4)c2=O)c1
    0.07	0.11
Cc1cccc(-n2c(O)c(/C=C3/C(c4ccccc4)=Nc4ccccc43)c(=O)[nH]c2=O)c1
    0.14	-2.94
COCc1c(CN)cnc(C)c1N
    0.77	0.03
CN(C)CC1CCCCC1=O (stereo not given)
    0.96	0.16

No new results follow: entries from further up.
Each structure is followed by: KCNQ2 pot	KCNQ2 pot baseline
CCN(CC)P(=S)(c1c(C)nc2ccccn12)c1c(C)nc2ccccn12
    0.64	-0.66
CC(C)Oc1cccc(NC(=O)c2cccn(Cc3ccc4c(c3)OC(F)(F)O4)c2=O)c1
    0.07	0.11
Cc1cccc(-n2c(O)c(/C=C3/C(c4ccccc4)=Nc4ccccc43)c(=O)[nH]c2=O)c1
    0.14	-2.94
COCc1c(CN)cnc(C)c1N
    0.77	0.03

Later entries
Each structure is followed by: KCNQ2 pot	KCNQ2 pot baseline
O=[N+]([O-])c1cc(F)c(N2CCCC2)cc1Br
    0.05	0.18
O=C(c1ccc(C(F)(F)F)cc1)C1CCCN(C2CCSCC2)C1 (stereo not given)
    0.25	0.94
CCC(C)n1c(O)c(C=NCCN2CCOCC2)c(=O)[nH]c1=S (stereo not given)
    0.01	-0.16
COC(=O)CC(NC(=S)N1CC2C[C@@H](C1)Cn1c2cccc1=O)C(=O)OC (stereo not given in full)
    1.74	-1.38
Cc1ccc(C(=O)C2CN3CCC2CC3)cc1 (stereo not given)
    0.1	0.82
CC1=NN(c2ccccc2)C(=O)C1/C=C1\C(=O)NC(=O)N(c2ccc(C)c(C)c2)C1=O (stereo not given)
    0.7	-0.16
COc1ccc(C[C@H]2NC[C@H](O)[C@H]2OC(C)=O)cc1
    1.26	-1.19
COc1ccc(-n2c(SC)nc3ccccc3c2=O)cc1
    0.49	-1.09
CCN(CC)C(=O)c1ccc(NC(=O)c2cc(S(=O)(=O)N3CCCCCC3)ccc2OC)cc1
    0.09	0
O=c1[nH]c(O)c(C=NC2CCN(Cc3ccccc3)CC2)c(=O)[nH]1
    0.37	-1.6
Cc1cccc2c(CCN)c[nH]c12
    1.4	-0.07
CC12CCC3C(CC=C4CC(O)CCC43C)C1C/C(=C\c1cccc(F)c1)C2=O (stereo not given)
    0.82	1.71
COc1c(C)cc(C(=O)C2CCCN(Cc3cnc(C)s3)C2)cc1C (stereo not given)
    1.75	1.03
Cc1nc2ccc(P(=O)(O)O)cc2s1
    2.04	-1.1
O=C(/C=C/c1ccc(Br)cc1)NC(=S)N1C[C@H]2C[C@H](C1)c1cccc(=O)n1C2
    1.13	-0.02
FC(F)(F)c1ccc(CNCCc2c[nH]c3ccccc23)cc1
    1.14	-1.19
N#CC[N+]1(CCCNP2(=O)C=C(c3ccccc3)OC(c3ccccc3)=C2)CCOCC1
    0.26	0.01
Cc1cc(N2C(=O)C3CCCN3C2c2ccc(Cl)c(Cl)c2)no1 (stereo not given)
    0.73	0.01
CC(=O)Nc1ccccc1C(=O)OCC(=O)c1ccc2c(c1)OCCO2
    1.74	0.22
CC/C(=N\NC(=S)Nc1ccccc1)c1c(O)[nH]c(=O)[nH]c1=O
    1.49	-1.12
O=[N+]([O-])/C=C1/NCCN1Cc1ccc(Cl)nc1
    0.02	0
CCCCC(=O)N/N=C/c1c(O)n(CC)c(=S)n(CC)c1=O
    1.05	0.19
Nc1c2c(nc3sc4c(c13)CCCC4)CCCC2
    1.44	-0.66
O=C(c1ccc2c3c(cccc13)CC2)C1CCCN(CC2CC2)C1 (stereo not given)
    0.24	0.58
CC(=NCc1ccco1)c1c(O)n(-c2ccccc2C)c(=O)[nH]c1=O
    1.32	-1.38
CNS(=O)(=O)c1ccc(-c2ccc(C=C3C(=O)NC(=O)NC3=O)o2)cc1
    0.28	1.47
CC(C)n1c(O)c(C2c3cc(Cl)ccc3Oc3[nH]c(=O)n(C(C)C)c(=O)c32)c(=O)[nH]c1=O (stereo not given)
    4.72	-0.66
C[C@]12CC(=O)CC1CCC1C2CC[C@@]2(C)C1CC[C@@H]2O (stereo not given in full)
    0.79	3.68
CC(=NCCN1CCCCC1)c1c(O)[nH]c(=O)[nH]c1=O
    0.98	0.53
Cc1cccc(CN(C)C)c1OC(=O)N(C)C
    1.25	-0.07
CCOC(=O)C1=C(C)OC(N)=C(C#N)C12C(=O)N(C)c1ccccc12 (stereo not given)
    0.78	-0.76
O=P1(Oc2ccccc2)C[C@@H](O)[C@@H](O)[C@H](COCc2ccccc2)O1 (stereo not given in full)
    0.68	0.47
CCCn1ncc(CN2CCCC(C(=O)c3cccc(OC)c3)C2)c1C (stereo not given)
    1.07	-0.06
Nc1ccc(C2(c3ccc(N)cc3)c3ccccc3-c3ccccc32)cc1
    0.7	0.02
O=[N+]([O-])c1cc(-c2ccc([As](=O)(O)O)cc2)ccc1[As](=O)(O)O
    0.17	0.53
CN(C)CC1CSCCC1(O)c1cccc(Cl)c1 (stereo not given)
    0.1	-0.45
Oc1c(Br)cc(Br)cc1Oc1ccc(Br)cc1Br
    0.58	0.26
CC(C)c1cc(Br)c(NC(=O)Nc2cccnc2)c(Br)c1
    2.77	0.09
Cn1c(=O)c2c(nc(N/N=C/c3c(O)n(C4CCCCC4)c(=S)[nH]c3=O)n2C)n(C)c1=O
    0.97	-1.1
CC(C(=O)c1ccc(Cl)cc1Cl)n1cncn1 (stereo not given)
    2.17	-2.41
CCCC(=O)c1ccc(CP(=O)(OCC)OCC)o1
    1.55	0.33
CCOP(=S)(OCC)SCOC(=O)NCC(=O)OC
    1.06	-0.03
Nc1c(C(=O)OCc2ccccc2)c2nc3ccccc3nc2n1Cc1cccs1
    0.46	0.16
O=C1NC(=O)C(=Cc2ccsc2)C(=O)N1
    1.94	-0.87
CCCCCSc1cc(O)c(C(CNC)C(C)C)cc1OC (stereo not given)
    0.41	0.99
COc1ccc(NC2=NCC(C)S2)cc1 (stereo not given)
    4.58	0.17
CCN1C[C@@]2(COC)C3[C@@H](OC)[C@H]4[C@@H]1[C@@]3(C1C[C@H]3[C@H](O)C1[C@]4(O)C[C@H]3OC)[C@@H](OC)C[C@H]2O (stereo not given in full)
    1.05	0.42
CN1C(=O)C(=Cc2ccc(N3CCCCC3)o2)C(=O)N(C)C1=S
    0.09	-0.71
O=C(c1ccc2c(c1)OCO2)N1CCC2(CC1)OCCO2
    1.11	0.78
O=C(C(=O)N1CCOCC1)c1cn(Cc2ccccc2)c2ccccc12
    1.29	-0.15
CCCCCC(=O)N[C@@H](c1ccccc1)[C@@H](O)C(=O)O[C@H]1C[C@@]2(O)[C@@H](OC(=O)c3ccccc3)C3[C@](C)(C(=O)[C@H](O)C(=C1C)C2(C)C)[C@@H](OC1OCC(O)C(O)C1O)C[C@H]1OC[C@@]31OC(C)=O (stereo not given in full)
    0.7	0.37
CC(C(=O)c1cn(C)c2ccccc12)c1ccccc1 (stereo not given)
    0.83	0.01
CC1CN2c3ccc([N+](=O)[O-])cc3CC3(C(=O)N(C)C(=O)N(C)C3=O)C2C(C)O1 (stereo not given)
    1.08	-0.25
Cc1ccsc1C(=O)C1CCCN(Cc2ccn[nH]2)C1 (stereo not given)
    0.94	0.14
CC1CCSP(=O)(Oc2ccccc2)O1 (stereo not given)
    1.42	0.07
C[C@H]1[C@H](OC(=O)CCC(=O)NCc2ccc(C(=O)O)cc2)O[C@@H]2O[C@@]3(C)CC[C@H]4[C@H](C)CC[C@@H]1C24OO3
    0.06	0.93
N#Cc1cc(F)c(N2CCNCC2)cc1Cl
    0.27	-0.48
COc1nc(C)nc(NC(=O)NS(=O)(=O)c2ccccc2Cl)n1
    0.82	-0.32
CCCC(C)C1(CC)C(=O)NC(=O)N=C1N (stereo not given)
    0.16	0.91
CC12CN3CC(C)(CN(C1)C31CCOCC1)C2=O
    1.67	-0.57

(next part)
Each structure is followed by: KCNQ2 pot	KCNQ2 pot baseline
CCn1cc(C(=O)c2ccccc2)c2ccccc21
    0.65	-1.34
COc1ccc(CCNC(=O)COC(=O)Cc2ccccc2)cc1
    0.56	-0.77
C/C(=N\N1CCCCC1)c1c(O)[nH]c(=O)[nH]c1=O
    1.26	0.09
COc1ccc(CCn2c(O)c(C=Nc3ccc(F)cc3)c(=O)[nH]c2=O)cc1OC
    1.86	-0.37
COc1cc(/C=C2\C(=O)NC(=O)N(c3ccc(C)cc3)C2=O)cc(OC)c1O
    0.15	0.58
O=c1[nH]c(O)c(N=Nc2cc(C(F)(F)F)ccc2Cl)c(=O)[nH]1
    0.13	-2.74
CCOc1cc2c(cc1OCC)-n1cccc1C(c1c(O)cccc1OC)NC2 (stereo not given)
    0.12	0.27
CCOC(=O)N1CCN(C(C)C(=O)c2c[nH]c3ccccc23)CC1 (stereo not given)
    1.12	0.7

Profiles as entered above. Values in the order: KCNQ2 pot, KCNQ2 pot baseline
Listed for `CCOC(=O)N1CCN(C(C)C(=O)c2c[nH]c3ccccc23)CC1` (stereo not given) → 1.12, 0.7
Listed for `C/C(=N\N1CCCCC1)c1c(O)[nH]c(=O)[nH]c1=O` → 1.26, 0.09
Listed for `COc1ccc(CCNC(=O)COC(=O)Cc2ccccc2)cc1` → 0.56, -0.77
Listed for `COc1cc(/C=C2\C(=O)NC(=O)N(c3ccc(C)cc3)C2=O)cc(OC)c1O` → 0.15, 0.58
Listed for `COc1ccc(CCn2c(O)c(C=Nc3ccc(F)cc3)c(=O)[nH]c2=O)cc1OC` → 1.86, -0.37
